Compound activity from PubChem.
SARS PLP yeast = inhibitors of SARS-CoV papain-like protease in yeast; S. cerevisiae expressing SARS-CoV PLpro, growth rescue; control for the full effect not named in the record; Potency, µM (doses to about 32.9 µM), inactives show at the highest dose activity, positive = growth rescue; 330,000 tested, 0.19% active; AID 485353; active means well fitted rising curve with a large enough effect; inconclusive means small, poorly fitted or top-dose-only effect; inactive means no such curve, though single readings can be large or run the other way; note: 0% is about no effect; nearly all actives have a fitted effect of over 55% in size; growth read by luminescence after 48 h
StopGo reporter = FMDV 2A StopGo reporter, luciferase signal | 410,000 tested, 1.2% active | human cells with a luciferase reporter of 2A StopGo recoding; control for the full effect not named in the record | Potency, µM (top dose mostly 57.9 µM), inactives show top-dose signal change, negative = less light; active = well fitted falling curve with a large enough effect; inconclusive = small, poorly fitted or top-dose-only effect; inactive = no such curve, though single readings can be large or run the other way; tested in HEK293T cells; note: % is set by controls: 0 for no effect and ±100 for the full control effect; nearly all actives have a fitted effect of over 45% in size; luciferase light after 4 h
RE007 growth inh = less growth of the S. pombe RE007 Vpr strain; AID 651644; 360,000 tested, 0.21% active; S. pombe RE007 Vpr strain, BacTiter-Glo ATP luminescence, 24 h; control for the full effect not named in the record; Potency, µM (top dose mostly 92.2 µM), for inactives: top-dose activity change, negative = less growth; active = well fitted falling curve with a large enough effect; inconclusive = small, poorly fitted or top-dose-only effect; inactive = no such curve, though single readings can be large or run the other way;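 note: % is set by controls: 0 for no effect and ±100 for the full control effect; nearly all actives have a fitted effect of over 50% in size; the assay follows cell death caused by Vpr and the record does not say whether a fall means rescue or toxicity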
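Fission yeast strain RE007, carrying one chromosomally integrated HIV-1 vpr copy, was seeded at OD 0.01 in PMG+AL medium with 23 nL pinned compound. After 24 h at 30 °C and 99% humidity, viability was read by BacTiter-Glo luminescence.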
Starred values were filed as active, the others as inactive; ? = inconclusive; [ ] = another dose, or the depositor's remark. Potency is the fitted concentration of half-maximal effect. This is a subset; rates above refer to the full screens.

SMILES	SARS PLP yeast	StopGo reporter	RE007 growth inh
CCOc1ccc(-c2cc(C(=O)NCCCn3ccnc3)c3ccccc3n2)cc1	0%	6%	-1%
CCCNC(=O)CSc1nc2ccc(OCC)cc2s1	1%	-26%	4%
OCCNC(=S)Nc1ccc2nsnc2c1	6%	27%	-3%
CCOc1ncccc1C(=O)Nc1cccc(S(=O)(=O)NC2=NCCC2)c1	0%	1%	-6%
Cc1ccc[n+](C2C(c3ccc([N+](=O)[O-])cc3)C(C#N)=C([S-])NC2(O)C2CC2)c1 (stereo not drawn)	1%	-10%	-10%
CCC(COC)Oc1cc(NCc2ccccc2)c2ncn(C(C)C)c2c1 (stereo not drawn)	0%	-9%	-12%
O=C1NCCOC(=O)[C@@H](Cc2ccc(F)cc2)CC/C=C/C[C@@H]1CC(=O)N(CCO)Cc1ccccc1	-27%	-30%	-2%
CSc1ncc(C(C)=O)c(C)n1	0%	10%	-22%
CC(=O)c1sc(NC(=O)c2ccc(F)cc2)nc1-c1ccccc1	1%	57%[activator]	-9%
CCc1cc(Cn2nc(-c3ccccc3)cc2C(=O)NCc2ccc(C)cc2)on1	-1%	-6%	-7%
COc1ccc(Cl)cc1NC(=O)CN1C(=O)NC(C)(Cc2ccc(OC)c(OC)c2)C1=O (stereo not drawn)	11%	-22%	7%
C[C@H](CO)N1C[C@H](C)[C@H](CN(C)CC2CCCCC2)Oc2ccc(NS(=O)(=O)c3ccc(F)cc3)cc2CC1=O	-2%	-21%	-2%
Nc1ncnc2c1ncn2[C@@H]1O[C@H](CNCC#Cc2ccccc2)[C@@H](O)[C@H]1O	-1%	-68%	-25%
O=C(c1ccc(Cl)c([N+](=O)[O-])c1)N1CCN(S(=O)(=O)c2ccc(Cl)cc2)CC1	0%	?	-3%
COC(=O)c1sccc1NC(=S)N1CCN(C)CC1	2%	-13%	-11%
O=C(O)c1cccc(S(=O)(=O)Nc2cccc(S(=O)(=O)N3CCCC3)c2)c1	-14%	-18%	2%
NC(=O)c1ccc(NC(=O)COc2ccc(-n3cnnn3)cc2)cc1	-5%	-22%	?
COC(=O)c1ccccc1NC(=O)CN1C(=O)NC2(CCCCCCC2)C1=O	0%	-6%	-1%
CCC(=O)c1ccc(OCC(=O)N(C)CC(=O)Nc2cccc(F)c2)cc1	4%	7%	5%
C[C@H](CO)N1C[C@H](C)[C@@H](CN(C)S(=O)(=O)c2cccs2)Oc2ccc(NC(=O)Cc3ccccc3)cc2C1=O	-3%	-25%	1%
CCN1C(=O)[C@H]2[C@@H](c3ccc(-c4ccc(OC)cc4)cc3)N[C@@](C)(C(=O)OC)[C@H]2C1=O	-5%	-16%	3%
COc1ccccc1-c1sc2ccccc2c1-c1ccc(OCCN2CCCCC2)cc1	-6%	0%	-6%
CC(=O)c1c(C)[nH]c(C(=O)OCc2csc(CC(=O)Nc3ccccc3C)n2)c1C	3%	20µM*	-11%
O=C(Nc1ccccc1)C1CCCN(C(=O)c2ccc(F)cc2)C1 (stereo not drawn)	6%	-21%	-4%
O=C(NN1C(=O)c2ccccc2NC1c1ccoc1)c1ccccc1 (stereo not drawn)	5%	19%	6%

Ordered by SMILES length (high to low): part of the list above.
SMILES	SARS PLP yeast	StopGo reporter	RE007 growth inh
C[C@H](CO)N1C[C@H](C)[C@H](CN(C)CC2CCCCC2)Oc2ccc(NS(=O)(=O)c3ccc(F)cc3)cc2CC1=O	-2%	-21%	-2%
O=C1NCCOC(=O)[C@@H](Cc2ccc(F)cc2)CC/C=C/C[C@@H]1CC(=O)N(CCO)Cc1ccccc1	-27%	-30%	-2%
O=C(c1ccc(Cl)c([N+](=O)[O-])c1)N1CCN(S(=O)(=O)c2ccc(Cl)cc2)CC1	0%	?	-3%
Nc1ncnc2c1ncn2[C@@H]1O[C@H](CNCC#Cc2ccccc2)[C@@H](O)[C@H]1O	-1%	-68%	-25%
COc1ccc(Cl)cc1NC(=O)CN1C(=O)NC(C)(Cc2ccc(OC)c(OC)c2)C1=O (stereo not drawn)	11%	-22%	7%
CC(=O)c1c(C)[nH]c(C(=O)OCc2csc(CC(=O)Nc3ccccc3C)n2)c1C	3%	20µM*	-11%
O=C(O)c1cccc(S(=O)(=O)Nc2cccc(S(=O)(=O)N3CCCC3)c2)c1	-14%	-18%	2%
CCC(=O)c1ccc(OCC(=O)N(C)CC(=O)Nc2cccc(F)c2)cc1	4%	7%	5%
CCOc1ncccc1C(=O)Nc1cccc(S(=O)(=O)NC2=NCCC2)c1	0%	1%	-6%
NC(=O)c1ccc(NC(=O)COc2ccc(-n3cnnn3)cc2)cc1	-5%	-22%	?
CCC(COC)Oc1cc(NCc2ccccc2)c2ncn(C(C)C)c2c1 (stereo not drawn)	0%	-9%	-12%
O=C(NN1C(=O)c2ccccc2NC1c1ccoc1)c1ccccc1 (stereo not drawn)	5%	19%	6%
COC(=O)c1sccc1NC(=S)N1CCN(C)CC1	2%	-13%	-11%
OCCNC(=S)Nc1ccc2nsnc2c1	6%	27%	-3%
CSc1ncc(C(C)=O)c(C)n1	0%	10%	-22%

Further results follow.
SMILES	SARS PLP yeast	StopGo reporter	RE007 growth inh
CCN1C(=O)[C@@H]2[C@H](C1=O)[C@@H]1C(=O)Nc3ccccc3C(=O)N1[C@@H]2c1ccc(OC)cc1	-25%	-12%	11%
O=C1[C@H](Oc2ccccc2)[C@@H](c2ccccc2)N1c1ccncc1	7%	16µM*	-16%
COC(=O)/C=C/c1ccccc1CN1[C@@H](CC(=O)OC)c2ccccc2S1(=O)=O	-9%	10%	-4%
COC(=O)C1=C(c2ccc(OC)c(OC)c2)C[C@@H]2CC[C@H]1N2C(=O)NCCOc1ccc(OC)cc1	0%	0%	0%
COc1ccccc1C(=O)NNC(=O)c1ccncc1	-3%	3%	0%
COC(=O)C1=C(c2ccccc2OCc2ccccc2)C[C@@H]2CC[C@H]1N2C(=O)NCc1ccc(C(C)(C)C)cc1	2%	-22%	11%
O=C(CN1C(=O)NC2(CCCCCCC2)C1=O)NCc1ccccc1	-35%	-11%	-1%
C[C@]12c3[nH]c4ccccc4c3CCN1C(=O)C(CC(=O)NCc1cccc(C(F)(F)F)c1)C[C@@H]2C(=O)N1CCOCC1 (stereo partly drawn)	1%	-24%	1%
O=C(NCc1ccncc1)C(=O)C1C(=O)Nc2ccccc21 (stereo not drawn)	-3%	-10%	-17%
Cc1cc(-c2ccc3ccccc3c2)n2ncnc2n1	-3%	-11%	-6%
CCC(CO)Oc1cc(NC(=O)c2ccc(Cl)cc2)c2ncn(C(C)C)c2c1 (stereo not drawn)	-4%	40%[activator]	4%
COc1ccccc1NS(=O)(=O)c1ccc(C)c(NC(=O)C2CCCO2)c1 (stereo not drawn)	12%	10%	-9%
O=C(Nc1cc(C2CC2)nn1-c1ccccc1)c1ccc(F)cc1	-1%	-3%	12%
COc1ccc(C)cc1NC(=O)CN1c2cccc3cccc(c23)S1(=O)=O	-2%	-20%	-17%
CN(CC(=O)N(C)CC(=O)Nc1c(Cl)cccc1Cl)Cc1ccc(Br)s1	15%	-7%	-2%
Cc1ccc(Cl)cc1C1=CC(=O)C[C@H](c2ccc(F)cc2)C1	-1%	-24%	-19%
N#C[C@H](O[C@@H]1O[C@H](CO[C@@H]2O[C@H](CO)[C@@H](O)[C@H](O)[C@H]2O)[C@@H](O)[C@H](O)[C@H]1O)c1ccccc1	-45%	-12%	-4%
COc1ccc(Cl)cc1NC(=O)COC(=O)c1ccc(Cl)nc1	-7%	-6%	-4%
CC1CCc2sc(C(=O)NC3CCN(Cc4ccccc4)CC3)cc2C1 (stereo not drawn)	-2%	?	-19%
COCCNC(=O)C1CCN(C(=O)c2cc3sccc3n2Cc2ccc(F)cc2)CC1	-3%	-29%	2%
Cc1cccc(C)c1NC(=O)CN1CCN(C(=O)CNC(=O)c2ccc(N3CCCC3=O)cc2)CC1	0%	-13%	18%
O=C(/C=C/c1ccco1)OCC(=O)c1ccc(OC(F)F)cc1	-1%	4%	-11%
COc1ccccc1S(=O)(=O)NCc1ccc(C(=O)N(C)Cc2ccc(F)cc2)cc1	-14%	-9%	11%
CCOc1ccc(/C=C/C(=O)N(C)CC(=O)Nc2cccc(F)c2)cc1OCC	-2%	-6%	4%
COc1ccc(C2OC(=O)CC2C(=O)NCc2ccc(C)cc2)cc1OC (stereo not drawn)	0%	-12%	-3%
(more compounds)
SMILES	SARS PLP yeast	StopGo reporter	RE007 growth inh
Cn1c(CC(=O)NNC(=O)c2ccccc2[N+](=O)[O-])nc2ccccc21	3%	-8%	-7%
COc1ccc(CCNC(=O)c2cc(C3CC3)nc3c2cnn3C(C)C)cc1	2%	-25%	-9%
CCC1CCCCN1C(=O)COC(=O)c1cc(C)nc2ccccc12 (stereo not drawn)	-2%	?	1%
CCOC(=O)[C@H]1[C@H]2COc3ccc(Cl)cc3[C@@H]2N2C(=O)c3cc(OC)ccc3NC(=O)[C@@]12C	-3%	-24%	-8%
COc1cccc(CNC(=O)COC(=O)/C(C#N)=C/c2ccc(N(C)C)cc2)c1	-1%	5%	-8%
CC(=O)c1ccc(S(=O)(=O)N2CCN(CCOc3ccc(Br)cc3)CC2)cc1	-1%	18µM*	?
CC(C)(C)[C@H]1COC(=O)[C@H](Cc2ccc(F)cc2)CC/C=C/C[C@@H](CC(=O)N[C@H](CO)Cc2ccccc2)C(=O)N1	-1%	-17%	-6%
CCSc1nnc(NS(=O)(=O)c2ccc(OC)cc2)s1	0%	17%	4%
CCCCn1nc(C(=O)Nc2cccc(C(=O)NC3CC3)c2)c2ccccc2c1=O	1%	-8%	-15%
O=C(Cn1cnc2c(NCc3ccccc3)ncnc21)NCc1ccc2c(c1)OCO2	-16%	-23%	-3%
CCc1ccccc1NC(=O)CNC(=O)c1cc(C2CC2)nn1-c1ccccc1	-2%	?	-15%
COc1ccc([C@H]2CC(=O)C=C(c3ccc(C)c(F)c3)C2)cc1	1%	3%	-1%
O=C(CNS(=O)(=O)c1ccccc1F)OCC(=O)c1c[nH]c2ccccc12	0%	-13%	6%
O=C(CCNC(=O)c1ccc(Br)cc1)Nc1ccc(S(=O)(=O)N2CCOCC2)cc1	-2%	-3%	1%
COc1cccc(C(=O)OC(C)C(=O)NCC2CCCCC2)c1 (stereo not drawn)	11%[6.58 µM]	1%	8%
O=C(CSc1nnc(-c2ccncc2)n1-c1ccccc1)NCC1CCCO1 (stereo not drawn)	3%	-8%	-12%
Oc1c(N=NC(=S)Nc2ccccc2F)c2ccccc2n1Cc1ccccc1Cl	2%	-16%	21%
NCCc1ccc(S(N)(=O)=O)cc1	3%	-19%	2%
COC(=O)[C@]1(CC(C)C)N[C@H](c2ccc(-c3ccc(F)cc3)cc2)[C@@H]2C(=O)N(C)C(=O)[C@@H]21	-2%	?	-9%
C[C@H](NC(=O)c1nc[nH]c1C(=O)N1CCN(C(=O)OC(C)(C)C)CC1)C(=O)OC(C)(C)C	-2%	-1%	1%
CN(C)CCNc1oc(-c2ccccc2Cl)nc1S(=O)(=O)c1ccccc1	-2%	4%	-3%
CCN(CC(=O)Nc1ccc(NC(C)=O)cc1)C(=O)/C=C/c1ccc(C)o1	-1%	3%	2%
CCN(C(=O)COC(=O)C1CC1)c1c(N)n(Cc2ccccc2)c(=O)[nH]c1=O	-3%	-13%	0%
CCc1noc(C)c1C(=O)NNC(=O)COc1cc(C)ccc1C	3%	-2%	3%
Nc1c(C(=O)CSc2nnc(Cc3ccccc3)o2)c(=O)[nH]c(=O)n1C1CC1	-12%	-17%	0%
CN(CC(=O)Nc1cccc(F)c1)C(=O)c1ccc(OCc2cn3ccccc3n2)cc1	0%	33%[activator]	-16%
